# D2 ag: agonists of human D2 dopamine receptor (beta-arrestin) | P14416 | DiscoveRx PathHunter D2 beta-arrestin, luminescence, 90 min; 100% = 57 uM dopamine signal | activation, % (concentration not given with the values) | 360,000 compounds, 0.084% hits | AID 624465; in the data active = activation above about 40%; inconclusive = about 15% to 40%; inactive = below about 15%; further: the text of the record calls up to 30% inactive
#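 Agonist mode: compounds alone added to overnight-plated D2 PathHunter cells for 90 min at 37 C, with 57 uM final dopamine (EC100) defining full response. Beta-arrestin recruitment detected by chemiluminescent reagent, read after 1 h at ambient temperature.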
# TRPML1 blocker: human mucolipin-1 channel inhibition; activity change, negative = inhibition, % (concentration not given with the values); 390,000 compounds, 0.02% hits; TRPML1-inducible cells, Ca2+ dye fluorescence, FDSS; hits give low values; inhibition of EC80 agonist-evoked calcium signal; in the data active means activity change below about -50%; inconclusive means about -30% to -50%; inactive means above about -30%;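 further: stimulus is agonist 54-4 at its EC80 concentration; on the % scale 0 is the no-effect control and ±100 the full control effect; the text of the record puts the active cut at -80%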
#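 Tet-induced TRPML1-DL cells loaded with Ca8 no-wash calcium dye were read kinetically on FDSS. Compound addition was followed by EC80 agonist 54-4 (4 uM final); inhibition was read over 110 s.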
# Six1-Eya2 blk: Six1/Eya2 interaction inhibition; Q15475+O00167; AlphaScreen GST-Six1/His-Eya2 binding, biochemical; hits give low values; control for the full effect not named in the record; activity change, % (test concentration not listed); 360,000 compounds, 0.56% hits; AID 651725; in the data active = activity change below about -65%; inconclusive = about -30% to -65%; inactive = above about -30%; further: on the % scale 0 is the no-effect control and ±100 the full control effect
# Target sequence (O00167 whole entry, looked up): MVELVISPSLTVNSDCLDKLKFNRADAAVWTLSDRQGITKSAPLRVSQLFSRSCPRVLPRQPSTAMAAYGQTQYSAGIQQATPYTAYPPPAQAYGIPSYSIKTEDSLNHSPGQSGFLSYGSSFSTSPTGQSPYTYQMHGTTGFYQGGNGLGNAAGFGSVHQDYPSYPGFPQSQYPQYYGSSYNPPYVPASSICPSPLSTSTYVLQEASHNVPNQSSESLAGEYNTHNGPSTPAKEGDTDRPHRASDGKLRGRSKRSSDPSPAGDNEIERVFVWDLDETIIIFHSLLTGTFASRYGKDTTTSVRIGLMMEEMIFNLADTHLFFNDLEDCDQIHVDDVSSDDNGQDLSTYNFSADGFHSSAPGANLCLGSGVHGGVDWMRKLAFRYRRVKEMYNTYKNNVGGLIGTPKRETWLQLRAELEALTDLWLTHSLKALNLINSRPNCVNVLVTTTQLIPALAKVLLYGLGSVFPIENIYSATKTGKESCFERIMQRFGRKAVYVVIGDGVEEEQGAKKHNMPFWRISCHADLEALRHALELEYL
# Target sequence (Q15475 whole entry, looked up): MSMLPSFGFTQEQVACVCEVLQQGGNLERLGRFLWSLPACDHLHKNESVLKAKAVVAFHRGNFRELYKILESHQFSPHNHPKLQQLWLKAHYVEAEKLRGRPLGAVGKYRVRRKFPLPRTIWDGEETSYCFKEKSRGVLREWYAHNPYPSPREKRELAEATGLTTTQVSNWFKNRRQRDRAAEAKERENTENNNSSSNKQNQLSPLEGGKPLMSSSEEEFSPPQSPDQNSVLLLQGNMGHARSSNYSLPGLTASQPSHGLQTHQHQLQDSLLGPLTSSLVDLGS
#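 Homogeneous AlphaScreen proximity assay pairing GST-Six1 with His-tagged Eya2 (added as 5X mix: 250 nM and 500 nM) in 50 mM Tris pH 8.0, 300 mM NaCl, 1 mM TCEP. Glutathione donor and nickel acceptor beads; 1 h, 37 °C, dark.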
# TRPML1 agonist: activates the human TRPML1 channel; Q9GZU1; TRPML1-expressing cells, Ca2+ dye fluorescence, FDSS; host cell line not named in the record; reference of the full effect not given here; activation, % (test concentration not listed); 410,000 compounds, 0.12% hits; AID 624414; in the data active = activation above about 50%; inconclusive = about 30% to 50%; inactive = below about 30%; further: 0% is about no effect; the text of the record puts the active cut at 80%
#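 In this qHTS format, compounds were pin-transferred onto Ca8-dye-loaded TRPML1-DL cells induced with Tet overnight, and intracellular Ca2+ fluorescence was recorded kinetically for 110 s after a 10 s baseline. A subsequent 4uM final 54-4 (EC80) addition followed by a second 110 s read served as the antagonist phase.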
# CtBP-E1A inh: blocks the CtBP interaction with E1A; AlphaScreen GST-E1A/His-CtBP binding, 1536-well; hits give low values; control for the full effect not named in the record; activity change, % (concentration not given with the values); 340,000 compounds, 0.49% hits; in the data active means activity change below about -65%; inconclusive means about -30% to -65%; inactive means above about -30%; further: on the % scale 0 is the no-effect control and ±100 the full control effect
#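 In 5 uL wells, 23 nL compound meets equimolar GST-E1A and His-CtBP (5X stock 125 nM each) for 2 h, 37 °C. Beads (5X, 50 ug/mL) then 1 h, 37 °C, dark.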
# PINK1 expr mod: modulators of PINK1 expression; PINK1 immunofluorescence, high-content cytometry, 24 h; Potency, µM (titrated, usually from 76.6 µM), for inactives: top-dose activation (PINK1 increase), hits mostly activators; 410,000 compounds, 0.2% hits; AID 624263; active = well fitted activation curve with a large enough effect; inconclusive = small, poorly fitted or top-dose-only effect; inactive = flat fitted curve, though single readings scatter; cell line not stated here;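 further: potency means the concentration at half of the fitted maximal effect; % of control where 0% means no effect; nearly all actives have a fitted effect of over 65% in size; a mitochondrial uncoupler was the plate control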
#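 Stable cell line treated 24 h with compounds at 5 concentrations (CCCP controls), then fixed and immunostained for PINK1 plus nuclear and cell stains; PINK1 immunofluorescence quantified by laser-scanning microplate cytometry.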
# An asterisk follows results filed as active; nt = not tested or not shown; [ ] = another dose, or the depositor's remark.
SMILES,D2 ag,TRPML1 blocker,Six1-Eya2 blk,TRPML1 agonist,CtBP-E1A inh,PINK1 expr mod
Cc1noc(C)c1S(=O)(=O)N(C)C[C@H]1OCCCC[C@H](C)Oc2ccc(NC(=O)CCCN(C)C)cc2C(=O)N([C@H](C)CO)C[C@@H]1C,-3.9,23,4,-0.3,-9,-1.9%
Cc1nn(C(=O)N2CCOCC2)c(C)c1CN1C(=O)c2ccccc2C1=O,-0.8,4,3,-0.8,3,6.7%[38.3 µM]
O=C(O)C1C2C=CC(O2)C1C(=O)Nc1cccc(C(F)(F)F)c1 (configuration not stated),-4.6,8,1,0.0,1,2.2%
O=C(NCc1ccco1)c1cc2sccc2n1Cc1ccc(F)cc1,-1.0,5,-12,0.8,-5,-2.5%[38.3 µM]
COc1ccc(Cl)cc1NC(=O)CN1CCN(S(=O)(=O)N2CCCCC2)CC1,-7.9,-1,0,-1.5,-20,11%
COc1ccccc1C(=O)Oc1cc(N)n(S(=O)(=O)c2ccccc2)n1,-2.6,9,1,-1.4,nt,0.2%
COc1ccc(COC(=O)C2CC(=O)N(Cc3ccc(C)cc3)C2)cc1 (configuration not stated),-2.4,15,7,2.0,0,2.2%
CC(C)NC(=O)CCc1nnc(Cc2cccc(C(F)(F)F)c2)o1,-3.7,-16,3,-0.2,8,0.6%
CC(C)[C@@H](C(=O)NCC1CCC(C(=O)O)CC1)n1nnc2ccccc2c1=O (some centres not stated),-2.9,32,5,0.2,0,1.0%
Cc1ccc(NC(=O)C2CCN(S(=O)(=O)c3c(C)[nH]c(=O)[nH]c3=O)CC2)cc1,0.0,-5,5,0.2,5,1.2%[38.3 µM]
Cc1ccc(C(=O)NC(=S)Nc2ccccc2C(F)(F)F)c(C)c1,-0.8,17,3,3.0,0,29%
COc1ccc(-n2c(SCC(=O)NCC3CCCO3)nc3c(c2=O)SC(C)C3)cc1 (configuration not stated),-0.7,-7,18,-0.1,-5,1.5%
C[C@H]1CN([C@@H](C)CO)S(=O)(=O)c2ccc(C#Cc3ccccn3)cc2O[C@@H]1CN(C)C(=O)C1CC1,-5.1,-15,2,-0.6,-4,2.0%
O=C1NC[C@@H](Cc2cccc3ccccc23)N(CCCCC2CCCCC2)C1=O,1.0,8,-6,1.6,-1,-1.1%
CSCC[C@H](NC(=O)Nc1cccc(Br)c1)C(=O)O,-0.8,28,1,-0.3,5,0.9%
COc1ccc(C(=O)Nc2cc(OC)cc(OC)c2)cc1,-2.1,8,-2,-0.5,-4,0.1%
c1ccc(-c2cc3c(nn2)CCc2nonc2-3)cc1,-0.6,-1,-5,0.3,0,-2.7%
COc1ccc(NC(=O)C(Cc2ccccc2)NC(=O)c2ccco2)cc1OC (configuration not stated),-0.8,9,2,-0.2,6,-1.5%[38.3 µM]
CCOC(=O)CC1C(=O)NCCN1C(=O)c1ccc(Cl)cc1Cl (configuration not stated),1.3,1,10,1.2,7,2.8%
O=C(N/N=C\c1cccc(OC(=O)c2ccco2)c1)c1ccc2c(c1)OCO2,-4.9,3,-3,1.7,-25,11%
CCNS(=O)(=O)c1ccc(NC(=O)CC(C)c2ccccc2)cc1 (configuration not stated),-1.0,-25,-6,0.4,-19,-1.0%
CCCNC(=O)N1CCN(S(=O)(=O)c2ccc(C)cc2)CC1,-0.7,7,0,-0.6,-3,0.1%
O=C(c1ccc(C(F)(F)F)cc1)N1CCCCC1,-2.7,25,3,0.1,0,1.1%
Cc1ccccc1NC(=O)CSc1nc(-c2ccccc2C)nc2cc(=O)[nH]n12,nt,20,nt,-0.3,nt,-1.7%
Cc1cc(NC(=O)c2cccs2)n(-c2ccccc2)n1,-0.5,21,-3,-0.5,-7,-2.4%[38.3 µM]
# Remaining list, next part
SMILES,D2 ag,TRPML1 blocker,Six1-Eya2 blk,TRPML1 agonist,CtBP-E1A inh,PINK1 expr mod
CCOC(=O)CSc1nnc(NC(=O)c2cccc([N+](=O)[O-])c2C)s1,-3.5,42,-4,2.0,0,4.3%
Cc1cc(C)n(-c2ccc(C(=O)O)cc2)n1,-5.8,-8,0,0.0,-18,-1.4%
CCCCCCCCCCCCS[C@H]1CS(=O)(=O)C[C@@H]1O,2.1,-7,1,0.3,nt,19%
O=[N+]([O-])c1cccc(/C=N/n2c(-c3cccnc3)n[nH]c2=S)c1,-2.3,7,-20,-0.1,-10,1.5%
Cc1cc(C)n(-c2ccc(NC(=O)C3CCCCN3C(=O)c3cccs3)cc2)n1 (configuration not stated),-1.3,21,-1,-0.7,-6,-0.2%
CCS(=O)(=O)N1CCc2cc(C(=O)NCc3ccccc3)ccc21,nt,-4,nt,-0.7,nt,0.2%
CCc1nc(N2CCN(CC(=O)NCC3CCCO3)CC2)c(C#N)c2c1COC(C)(C)C2 (configuration not stated),1.5,-21,2,1.4,nt,-0.5%
CCC(C)[C@H](NC(=O)C1CC(=O)N(c2ccc(OC)cc2)C1)C(=O)N1CCCCC1 (some centres not stated),1.1,2,0,-0.8,10,-0.8%
COc1ccc(-c2nn(-c3ccccc3)cc2C(=O)N(C)CC(=O)Nc2cccc(F)c2)cc1,-0.5,-10,10,-0.9,nt,0.5%
Cn1nc(C(C)(C)C)c([N+](=O)[O-])c1C(=O)NC1CCCCC1,-12,-12,9,1.7,nt,-0.2%
COc1ccc(NS(=O)(=O)c2ccc(OC)c(NC(=O)CCC3CCCC3)c2)cc1,-0.7,-17,2,1.8,3,-0.2%
Cc1cccc(NC(=O)c2ccc(S(=O)(=O)N3CCOCC3)cc2)c1C,3.8,16,10,-0.1,-15,5.0%
O=C(COc1ccccc1/C=C\c1nc(O)c([N+](=O)[O-])c(=O)[nH]1)Nc1ccccc1,-1.1,-5,-3,0.4,0,0.7%
CCOc1ccc(N2CC(C(=O)Nc3cc(S(=O)(=O)N4CCCCC4)ccc3C)CC2=O)cc1 (configuration not stated),3.5,0,1,2.3,-18,4.2%
COc1cc(NS(=O)(=O)c2ccc(NC(=O)Cc3ccccc3)cc2)nc(OC)n1,-0.1,22,-3,-0.5,-3,-0.2%
CCOC(=O)C1(C(C)(C)CC)CC(CSc2nc3ccccc3[nH]2)OC1=O (configuration not stated),-1.1,-10,0,0.6,0,1.3%
CCOC(=O)CNC(=O)C(CC(C)C)NC(=O)C1CCCCC1 (configuration not stated),-1.2,-14,3,-0.8,3,-1.8%
CC(=NNC(=O)c1cccs1)c1ccc2c(c1)OCCO2,0.3,15,-7,1.5,-1,2.1%
CCCNC(=O)C1(CC2CC(c3ccccc3)=NO2)CCN(C(=O)Cc2ccc(F)cc2)CC1 (configuration not stated),-0.5,2,1,-0.2,4,0.3%
O=C(CCl)Nc1cn(-c2ccccc2)nc1-c1ccccc1,5.8,3,1,1.0,nt,-3.4%
CCC(=O)N1N=C(c2cccc(NS(C)(=O)=O)c2)CC1c1cccs1 (configuration not stated),-0.6,-9,6,0.2,6,-0.4%
CCNc1nc(NCC)nc(SCCOC(=O)c2ccccc2)n1,3.6,-3,3,-0.1,11,3.5%
Cc1cccc(C)c1NC(=O)[C@@]1(CC(=O)O)CC(/C=C/c2ccccc2)=NO1,4.4,-1,-1,-0.2,10,2.6%
CCn1c(SCC(=O)Nc2cc(C)ccc2F)nnc1-c1ccccc1O,nt,-17,nt,-0.6,nt,1.2%
CC(C)Cn1c(-c2csc3c2CCCC3)n[nH]c1=S,4.3,-9,-3,-0.4,-17,3.0%
# (next part)
SMILES,D2 ag,TRPML1 blocker,Six1-Eya2 blk,TRPML1 agonist,CtBP-E1A inh,PINK1 expr mod
CCOCCc1nn2c(=O)cc(COC(=O)CNC(=O)c3ccc(F)cc3)nc2s1,nt,14,nt,-0.8,nt,0.6%
CC(C)c1nc2cc(C(=O)NC(C)c3cnn(C)c3)ccc2o1 (configuration not stated),-4.9,-4,1,-0.6,nt,0.6%
O=C(COC(=O)C1CC2CCCC(C1)C2=O)c1cccc(Br)c1 (configuration not stated),-3.0,62,3,-0.9,nt,-1.4%
C=CCN1CN=C(NS(=O)(=O)c2ccc(NC(C)=O)cc2)NC1,0.8,-3,3,0.4,nt,-0.4%
CCN(CC)C(=O)[C@H]1C[C@H](CC(=O)NCc2cccc(C(F)(F)F)c2)C(=O)N2CCc3c([nH]c4cc(CCC(=O)N(C)C)ccc34)[C@]12C,0.2,-22,5,1.6,1,1.0%
COc1ccc(OC)c(S(=O)(=O)Nc2cc3c(C(C)=O)c(C)oc3c3ccccc23)c1,nt,-7,nt,-0.4,nt,1.2%
CCCCc1cc(=O)oc2c(C)c(OCC(=O)N3C[C@H]4C[C@@H](C3)c3cccc(=O)n3C4)ccc12,-3.9,-6,-4,-0.2,2,2.3%
CNc1nc(-c2ccccc2)[n+](-c2ccc(C)cc2)s1,-2.4,23,1,-0.1,0,21%
O=C(/C=C/c1cccc([N+](=O)[O-])c1)N1CCOCC1,-4.9,-3,5,-0.2,11,-1.2%
COC(=O)c1ccc(N2CCN(C)CC2)c(NC(=O)c2ccc(Br)o2)c1,-0.7,-7,-2,-0.5,1,0.4%
CCCCCCNC(=O)CCNS(=O)(=O)c1ccc(C)cc1,4.9,5,7,1.1,0,-0.6%
Cc1cc2nc3n(c2cc1C)CC1CC(C(=O)NCc2ccco2)N(C)C31 (configuration not stated),-1.8,24,-1,-0.6,1,0.4%
CC(CC(=O)N(C)CC(=O)Nc1ccc(N2CCOCC2)cc1)c1ccccc1 (configuration not stated),0.6,24,1,1.0,-3,0.1%
CC(C)Cn1c(N)c(C(=O)COC(=O)CCNS(=O)(=O)c2ccccc2)c(=O)n(C)c1=O,3.2,1,-3,-0.3,-20,0.3%
COc1ccc(/C=C/C(=O)CC(O)(c2ccccc2)C(F)(F)F)cc1 (configuration not stated),-1.6,6,3,2.8,10,-1.8%
Cc1cc(C)n(C(=O)c2ccc([N+](=O)[O-])cc2[N+](=O)[O-])n1,7.8,5,-1,0.9,-14,0.4%
CCC(C)(C)C1CCc2[nH]nc(C(=O)NCCCNC(=O)OC(C)(C)C)c2C1 (configuration not stated),-1.8,6,2,0.3,2,0.8%
O=C1C(NS(=O)(=O)c2ccccc2)=C(N2CCN(c3ccc(F)cc3)CC2)C(=O)c2ccccc21,0.2,nt,-77*,nt,-88*,0.4%

# Individual results from the results shown.
# CCOC(=O)CNC(=O)C(CC(C)C)NC(=O)C1CCCCC1 (configuration not stated) in TRPML1 blocker = -14
# O=C1C(NS(=O)(=O)c2ccccc2)=C(N2CCN(c3ccc(F)cc3)CC2)C(=O)c2ccccc21 in CtBP-E1A inh = -88*
# CCOC(=O)CC1C(=O)NCCN1C(=O)c1ccc(Cl)cc1Cl (configuration not stated) in TRPML1 blocker = 1
# COc1ccc(Cl)cc1NC(=O)CN1CCN(S(=O)(=O)N2CCCCC2)CC1 in PINK1 expr mod = 11%

# Full records, looked up by structure. Screens in order: D2 ag	TRPML1 blocker	Six1-Eya2 blk	TRPML1 agonist	CtBP-E1A inh	PINK1 expr mod
# O=C(COc1ccccc1/C=C\c1nc(O)c([N+](=O)[O-])c(=O)[nH]1)Nc1ccccc1 in the list: -1.1	-5	-3	0.4	0	0.7%
# CC(C)c1nc2cc(C(=O)NC(C)c3cnn(C)c3)ccc2o1 (configuration not stated) in the list: -4.9	-4	1	-0.6	nt	0.6%

# Hits appear at their usual frequency. About 1% of those tested had a hit in this group.
